D2 PAM: positive allosteric modulators of human D2 dopamine receptor; P14416; DiscoveRx D2 beta-arrestin cells, luminescence, 90 min; 100% = 57 uM dopamine signal; potentiation, % (no concentration beside the values); 0.23% of 360,000 active; active = potentiation of 50% or more; inconclusive = 30% to 50%; inactive = 30% or less;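 also: compound concentration not given in the record; tested on top of an EC20 dose of dopamine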
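D2 cells co-treated with compound plus 50 nM dopamine (EC20) for 90 min at 37 deg C to detect potentiation. Beta-arrestin recruitment was read as enzyme-fragment luminescence after 1 h at ambient temperature. Full response was set by 57 uM dopamine.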
PINK1 modulator: PINK1 expression modulation. 0.2% of 410,000 active. PINK1 immunofluorescence, high-content cytometry, 24 h. Potency, µM (series often up to 76.6 µM), inactives show top-dose activation (PINK1 increase), usual class: activators; active = well fitted activation curve with a large enough effect; inconclusive = small, poorly fitted or top-dose-only effect; inactive = flat fitted curve, though single readings scatter; cell line not stated here;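 also: potency is read from the fitted curve at half-maximal effect; % of control where 0% means no effect; nearly all actives have a fitted effect of over 65% in size; a mitochondrial uncoupler was the plate control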
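PINK1 protein, normally rapidly degraded, was detected by immunofluorescence after 24 hour compound treatment of a stable cell line. Titration data (5 concentrations) came from laser-scanning cytometry, with CCCP-treated wells as controls.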
D2 agonist: activates the human D2 dopamine receptor | P14416 | DiscoveRx PathHunter D2 beta-arrestin, luminescence, 90 min; 100% = 57 uM dopamine signal | activation, % (no concentration beside the values) | 0.084% of 360,000 active; in the data active = activation above about 40%; inconclusive = about 15% to 40%; inactive = below about 15%; also: compound concentration not given in the record; the text of the record calls up to 30% inactive
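Agonist mode: compounds alone added to overnight-plated D2 PathHunter cells for 90 min at 37 C, with 57 uM final dopamine (EC100) defining full response. Beta-arrestin recruitment detected by chemiluminescent reagent, read after 1 h at ambient temperature.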
TRPML1 agonist: activates the human TRPML1 channel | TRPML1-expressing cells, Ca2+ dye fluorescence, FDSS; host cell line not named in the record; reference of the full effect not given here | 0.12% of 410,000 active | Q9GZU1 | AID 624414 | activation, % (concentration not given with the values); in the data active = activation above about 50%; inconclusive = about 30% to 50%; inactive = below about 30%; also: 0% is about no effect; the text of the record puts the active cut at 80%
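Tetracycline-induced TRPML1-DL cells are seeded and incubated overnight before loading with a no-wash Ca2+ dye and quencher. Agonist activity is taken from the 110 s fluorescence read following compound pin-transfer on an FDSS, before EC80 54-4 challenge.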
Six1-Eya2 inh: inhibitors of human Six1/Eya2 interaction. 0.56% of 360,000 active. Q15475+O00167. activity change, % (concentration not given with the values). AID 651725. AlphaScreen GST-Six1/His-Eya2 binding, biochemical; hits give low values; control for the full effect not named in the record; in the data active = activity change below about -65%; inconclusive = about -30% to -65%; inactive = above about -30%; also: % is scaled to controls: 0 for no effect and ±100 for the full control effect
Target sequence (O00167 whole entry, looked up): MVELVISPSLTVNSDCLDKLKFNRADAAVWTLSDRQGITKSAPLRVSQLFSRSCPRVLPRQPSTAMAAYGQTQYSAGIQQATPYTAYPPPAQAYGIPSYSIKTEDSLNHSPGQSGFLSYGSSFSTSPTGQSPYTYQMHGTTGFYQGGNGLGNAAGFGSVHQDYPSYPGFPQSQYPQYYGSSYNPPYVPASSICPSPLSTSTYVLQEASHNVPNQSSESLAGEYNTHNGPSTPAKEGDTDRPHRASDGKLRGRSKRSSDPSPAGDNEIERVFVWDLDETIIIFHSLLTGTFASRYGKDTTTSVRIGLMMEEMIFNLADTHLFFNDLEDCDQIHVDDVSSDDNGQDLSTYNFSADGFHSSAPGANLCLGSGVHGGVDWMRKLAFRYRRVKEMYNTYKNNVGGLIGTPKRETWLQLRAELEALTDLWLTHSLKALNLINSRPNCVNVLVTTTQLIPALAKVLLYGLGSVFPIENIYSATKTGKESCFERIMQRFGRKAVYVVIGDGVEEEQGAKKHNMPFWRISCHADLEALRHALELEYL
Target sequence (Q15475 whole entry, looked up): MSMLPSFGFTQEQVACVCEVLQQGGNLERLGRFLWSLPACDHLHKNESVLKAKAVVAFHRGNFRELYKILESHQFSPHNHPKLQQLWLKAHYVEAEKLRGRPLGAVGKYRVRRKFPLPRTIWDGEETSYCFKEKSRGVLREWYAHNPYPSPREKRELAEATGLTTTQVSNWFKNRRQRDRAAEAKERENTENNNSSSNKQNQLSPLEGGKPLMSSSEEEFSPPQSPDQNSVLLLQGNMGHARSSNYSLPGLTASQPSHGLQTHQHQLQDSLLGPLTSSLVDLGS
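AlphaScreen with GST-Six1 and His-Eya2 (5X mix: 250 nM and 500 nM), glutathione donor and nickel acceptor beads; buffer 50 mM Tris pH 8.0, 300 mM NaCl, 1 mM TCEP; 1 h at 37 C in the dark.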
TRPML1 blocker: human mucolipin-1 channel inhibition; 0.02% of 390,000 active; TRPML1-inducible cells, Ca2+ dye fluorescence, FDSS; hits give low values; inhibition of EC80 agonist-evoked calcium signal; activity change, negative = inhibition, % (concentration not given with the values); in the data active means activity change below about -50%; inconclusive means about -30% to -50%; inactive means above about -30%;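 also: stimulus is agonist 54-4 at its EC80 concentration; % is scaled to controls: 0 for no effect and ±100 for the full control effect; compound concentration not given in the record; the text of the record puts the active cut at -80%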
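Calcium fluorescence in TRPML1-DL cells induced overnight with Tet: a 110 s read after compound pin addition, then a 110 s antagonist read after challenge with 54-4 at 4 uM final (EC80).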
Active calls of the source: *; u = inconclusive; x = no result given; & = joins results of further samples; [ ] = remark or other dose.

SMILES	D2 PAM	PINK1 modulator	D2 agonist	TRPML1 agonist	Six1-Eya2 inh	TRPML1 blocker
Cc1ccc(C(=O)NC2CCN(CC(=O)NC3CCC(C)CC3)CC2)cc1 (stereo unspecified)	-14.3	-1.0%	-4.6	-0.4	5.7	26.8
CCCCc1c(-c2ccccc2OC)ncn1CCc1ccccc1OC	x	u	x	0.0	-17.6	x
CC(NC(=O)c1ccc2c(c1)CCN2S(C)(=O)=O)c1ccccc1 (stereo unspecified)	x	1.2%	x	-0.5	x	-11.2
CCOC(=O)c1ccc(N2C(=O)CC(N3CCC(O)(c4ccc(Br)cc4)CC3)C2=O)cc1 (stereo unspecified)	19.1	8.0%	1.4	-0.1	-2.2	0.1
CC(=O)c1c(C)[nH]c(C(=O)NNC(=O)c2ccc(C)cc2)c1C	-0.1	-1.6%	-5.7	0.1	3.4	2.1
CCOc1ccc(S(=O)(=O)NCCC(=O)Nc2nnc(C)s2)cc1	1.2	-0.6%	3.9	1.7	-0.2	14.4
C=CCOc1cccc(/C=C\c2nc(O)c([N+](=O)[O-])c(=O)[nH]2)c1	-8.6	6.7%	-6.9	-0.1	-19.4	-2.8
COc1cc(NC(=O)c2ccccc2)c(OC)cc1NC(=O)Cc1cccs1	4.1	0.2%	5.4	2.5	u	-4.0
CCOc1ccc(OCCCCN2CCCC2)cc1	-20.7	-0.7%	-4.4	0.2	-4.1	6.0
O=C(CSc1nnc(-c2ccc(F)cc2)o1)Nc1ccc(S(=O)(=O)N2CCCCCC2)cc1	-8.5	u	1.8	1.7	2.7	-11.5
Cc1cc(NC(=O)CN(C)CC(=O)Nc2ccc(Cl)c(C(F)(F)F)c2)no1	-23.4	3.0%	0.0	1.9	0.9	22.4
Cc1ccc(C(=O)Nc2ccc(OCc3cc(=O)n4c5c(sc4n3)CCCC5)cc2)cc1	x	2.4%	x	0.8	x	-15.2
O=C(CSc1nnc(CNC(=O)c2cccs2)o1)c1ccccc1	-9.9	-3.0%	-1.3	3.3	2.5	0.5
c1ccc(COc2cccc(-c3cc4nc(NCCc5ccncc5)ccn4n3)c2)cc1	-5.9	6.3%	7.8	0.6	-10.0	x
O=C(N/N=C/C(Br)=C/c1ccccc1)c1cccs1	-11.2	6.3%	0.0	-0.6	-14.6	-2.6
CCCN(CC(=O)Nc1ccccc1C)C(=O)/C=C/c1ccc(OC)c(OC)c1	-10.1	1.6%	1.3	-0.4	-6.6	23.4
CCC(c1nnc(SCC(=O)NC23CC4CC(CC(C4)C2)C3)o1)N(C)C (stereo unspecified)	-3.4	1.3%	-3.3	-0.4	3.9	2.3
Cc1nc2cccnc2n1C1CCN(S(=O)(=O)c2ccc(Cl)cc2)CC1	x	0.9%	x	1.8	x	18.8
Cc1ncsc1CCC(=O)N1CCCC(Nc2ccc(C(C)C)cc2)C1 (stereo unspecified)	-1.3	1.2%	-6.8	0.0	-5.3	62.6
N=c1oc2ccccc2cc1-c1nc(-c2ccccc2)cs1	7.5	10.4%	-7.5	-0.9	35.1	-8.6
CN1C(=O)/C(=C/c2ccccc2OCc2cccc(F)c2)NC1=S	-4.8	25.0%	-4.5	0.9	-11.6	22.7
CCCNC(=O)NC(=O)COC(=O)CNS(=O)(=O)/C=C/c1ccccc1	-10.4	-0.4%	-0.7	0.6	4.3	1.2
COc1ccc(/C=C/C(=O)Nc2ccccc2C(=O)O)cc1	8.7	1.2%	1.4	0.7	10.3	-6.3
O=C(CSc1ncn(-c2ccccc2)n1)N1CCN(c2ccccc2)CC1	-17.1	-1.2%	-1.6	0.9	-4.0	-2.9
CCc1ccc(OCC(=O)Nc2ccc(N3CCN(C(=O)c4ccccc4)CC3)cc2)cc1	-5.1	0.7%	1.0	2.1	-20.7	6.1
CC(C(=O)NCCN1CCOCC1)c1ccc([N+](=O)[O-])cc1 (stereo unspecified)	-3.7	0.9%	-1.9	1.9	-1.0	-9.3
Cc1nc2sc3c(c2c(=O)[nH]1)CCCC3	-11.4	-0.2%	-4.0	0.8	-1.6	1.0
CCN1C(=O)/C(=C2\SC(N3CCCCC3)=NC2=O)c2ccccc21	-14.4	-4.5%[38.3 µM]	-3.0	0.4	-8.6	65.0
Oc1c(Cl)cc(Cl)c2c1NCCC2	16.9	1.5%	u	0.7	u	-8.3
CCOc1ccc(C(=O)Nc2ccc(NC(=O)c3ccccc3)c(C)c2)cc1[N+](=O)[O-]	-2.8	3.6%	1.5	-0.7	8.4	29.5

The final two entries of the part above are carried over, then new ones follow:
SMILES	D2 PAM	PINK1 modulator	D2 agonist	TRPML1 agonist	Six1-Eya2 inh	TRPML1 blocker
Oc1c(Cl)cc(Cl)c2c1NCCC2	16.9	1.5%	u	0.7	u	-8.3
CCOc1ccc(C(=O)Nc2ccc(NC(=O)c3ccccc3)c(C)c2)cc1[N+](=O)[O-]	-2.8	3.6%	1.5	-0.7	8.4	29.5
COc1ccccc1N1CCC(N2CCN(CC(C)(C)C)C(CCO)C2)CC1 (stereo unspecified)	-9.2	-1.1%	-1.5	-0.2	-0.9	2.0
COc1ccc(/C=N\NC(=O)c2cccc(Br)c2)c(OC)c1	-6.0	-1.9%	-2.4	-0.3	12.5	-6.8
COc1ccccc1CNC(=O)c1cccc(NC(=O)N2CCSc3ncccc32)c1	x	-0.7%	x	1.2	x	5.7
Cc1ccc(CNC(=O)c2cc3c(=O)oc4ccc(C)cc4c3s2)cc1	x	-1.0%	x	-0.7	x	-19.8
CC1NC(=O)NC1CCCCCC(=O)Nc1ccc(F)cc1 (stereo unspecified)	-12.9	2.2%	-1.5	-0.8	5.0	-4.2
O=C(Nc1ccccc1C(=O)O)c1cccc(F)c1	-7.0	1.2%	-0.6	-0.8	-10.8	-0.8
COc1ccc(CCCNC(=O)C2CCC(=O)N(CC3CCCCC3)C2)cc1 (stereo unspecified)	9.6	-0.1%	-1.8	0.6	-6.6	80.6
CC(C)(C#N)Nn1cnnc1	-10.7	-0.1%	0.6	-0.2	23.2	-11.7
C(=N\n1cnnc1)/c1cccc2ccccc12	-6.0	-1.6%	-0.6	0.7	-2.6	53.8
O=C(CCc1ccccc1)n1nc(-c2ccco2)nc1SCc1ccccc1	-2.8	0.6%	-0.4	0.3	3.6	-7.8

Looked up above:
Cc1ccc(CNC(=O)c2cc3c(=O)oc4ccc(C)cc4c3s2)cc1 | TRPML1 agonist = -0.7
COc1ccccc1N1CCC(N2CCN(CC(C)(C)C)C(CCO)C2)CC1 (stereo unspecified) | D2 agonist = -1.5
C(=N\n1cnnc1)/c1cccc2ccccc12 | D2 agonist = -0.6

Next part
SMILES	D2 PAM	PINK1 modulator	D2 agonist	TRPML1 agonist	Six1-Eya2 inh	TRPML1 blocker
CC(C1CC1)N(Cc1ccccc1)C(=O)NC(=O)c1cccc(F)c1 (stereo unspecified)	-5.8	0.3%	2.9	-0.5	-4.5	1.5
COc1ccc(CNc2ncnc3ccccc23)cc1	-5.5	-0.3%	-3.6	0.3	-1.8	-6.9
COc1ccc(-n2c(Cc3cccn3C)nnc2SCC(=O)Nc2cccc(Cl)c2)cc1	-1.6	-2.0%	-1.6	3.7	-22.7	24.6
COc1ccc(NC(C)C(=O)Nc2ccc(C#N)cc2)cc1Cl (stereo unspecified)	0.3	-0.5%	-1.7	0.2	-7.3	8.3
CCOC(=O)N1CCN(C(=O)CCN2C(=O)/C(=C\c3cccc(OC)c3)SC2=S)CC1	0.9	12.4%	3.0	0.7	10.9	5.1
O=[N+]([O-])c1ccc(-c2csc3[n+]2CCS3)cc1	-7.9	0.4%	-1.0	-0.9	-5.0	1.3
Cc1nnc2c(N3CCN(c4ccccc4)CC3)nc3ccc(C(=O)c4ccccc4)cc3n12	x	0.0%	x	-0.4	x	2.5
COc1cccc(-c2nc(S(=O)(=O)c3ccccc3)c(N3CCC(C)CC3)o2)c1	x	-0.4%	x	0.8	x	15.6
COc1ccccc1CN1CCCC(C(=O)N(C)Cc2ccccc2)C1 (stereo unspecified)	-17.2	-5.7%	-4.5	-0.4	-0.1	5.3
Clc1nc(-c2ccccc2)cc(-c2ccc(Br)cc2)n1	-3.6	u	4.9	4.6	2.0	64.2
COc1ccc(-c2[nH]ncc2CN(C)C(C)c2ccncn2)c(F)c1 (stereo unspecified)	3.7	0.2%	2.3	0.0	0.9	-0.6
Cn1c(=O)c2nc(SCCO)n(C)c2n(C)c1=O	-0.6	-0.2%	5.6	-0.3	1.8	-13.9
O=C1CN(C(=O)c2c(F)cccc2F)C(c2ccc(F)cc2)c2cc(F)ccc2N1 (stereo unspecified)	-2.1	-0.9%	6.0	3.8	2.6	18.3
COc1ccccc1CC(=O)NCCCc1ccccc1	-14.3	-0.3%	-2.3	0.1	17.3	-15.3
Cc1ccc(C)c(N2CCN(C(c3ccc(N(C)C)cc3)c3nnnn3C(C)(C)C)CC2)c1 (stereo unspecified)	-1.9	0.7%	-3.0	0.0	-1.8	-5.0
Nc1c(C(=O)N2CCOCC2)sc2nc3c(cc12)CCCC3	-2.1	0.8%	0.6	-0.1	2.2	8.5
CCOc1ccc(CCN2C(=O)C(=O)N([C@@H](CC(C)C)CN3CCC[C@H]3CN3C(=O)C(=O)NC[C@@H]3Cc3ccccc3)C[C@@H]2Cc2ccccc2)cc1	x	0.8%	x	0.5	3.2	x
O=C(NCCc1c[nH]c2ccccc12)c1cc2sccc2n1Cc1ccccc1	-6.1	-3.4%	-3.3	2.0	-20.6	43.7
Cc1cc(N2CCN(c3cccc(C(F)(F)F)c3)CC2)n2nc(C)nc2n1	-13.7	7.2%	-1.3	1.5	0.1	15.4
COc1ccc(NC(=O)COC(=O)c2ccc(-n3cnnn3)cc2)cc1Cl	-9.0	-1.6%	0.2	0.9	-10.6	-12.6
CCOc1ccc(CN(C)CC(=O)Nc2cc(C)c(C)cc2[N+](=O)[O-])cc1	2.2	1.1%	-6.6	-0.3	-9.7	-14.7
O=C(CN1CCN(S(=O)(=O)c2ccccc2[N+](=O)[O-])CC1)Nc1ccc(N2CCOCC2)cc1	-12.0	0.0%	-4.0	-0.2	-3.6	-2.6
Cc1ccc2c(c1)N(Cc1cccc(Cl)c1)C(=O)c1cccnc1O2	-1.5	1.1%	-2.6	1.2	-1.6	14.9
O=C1Nc2ccccc2C(O)(C(=O)NCc2ccco2)N1c1ccc(Cl)c(Cl)c1 (stereo unspecified)	-18.3	-0.2%	-4.1	1.8	-11.8	-1.7
CCN(C1CCCCC1)S(=O)(=O)c1ccc(S(=O)(=O)N2CCN(CCC#N)CC2)cc1	-3.6	0.6%	-0.6	1.6	-2.4	22.8
CC(C)(C)n1nnnc1C(c1cccs1)N1CCCC2(CCCCC2)C1 (stereo unspecified)	-27.9	5.4%[38.3 µM]	-2.9	0.3	-0.2	-0.1
Cn1c(=O)[nH]c(=O)c2c1nc(Sc1ccccc1)n2CCc1ccccc1	-2.2	5.1%	-2.4	-0.5	2.4	-1.3
Cc1ccc2nc(Nc3nc(CSc4nnnn4-c4ccccc4)cc(=O)[nH]3)nc(C)c2c1	-5.4	x	-1.8	-0.3	2.4	-17.7
Cc1cccc(Oc2nc3c(c(=O)n(C)c(=O)n3C)n2C)c1	-2.6	-0.5%&0.2%	2.2	0.0&0.3	9.7	4.4&-6.7
COc1ccc(NC(=O)CSc2nncs2)cc1S(N)(=O)=O	21.1	-2.0%	3.4	0.8	1.4	22.5
